M1 PAM: human CHRM1 positive allosteric modulation. P11229. CHO-K1 hM1, Fluo-8 calcium fluorescence, ACh EC20; 0% = ACh EC20, 100% = maximal ACh. activation, % at 3 µM. 0.088% of 360,000 active; in the data active = activation above about 19%, passing the limit was not always enough
Target sequence (P11229 whole entry, looked up): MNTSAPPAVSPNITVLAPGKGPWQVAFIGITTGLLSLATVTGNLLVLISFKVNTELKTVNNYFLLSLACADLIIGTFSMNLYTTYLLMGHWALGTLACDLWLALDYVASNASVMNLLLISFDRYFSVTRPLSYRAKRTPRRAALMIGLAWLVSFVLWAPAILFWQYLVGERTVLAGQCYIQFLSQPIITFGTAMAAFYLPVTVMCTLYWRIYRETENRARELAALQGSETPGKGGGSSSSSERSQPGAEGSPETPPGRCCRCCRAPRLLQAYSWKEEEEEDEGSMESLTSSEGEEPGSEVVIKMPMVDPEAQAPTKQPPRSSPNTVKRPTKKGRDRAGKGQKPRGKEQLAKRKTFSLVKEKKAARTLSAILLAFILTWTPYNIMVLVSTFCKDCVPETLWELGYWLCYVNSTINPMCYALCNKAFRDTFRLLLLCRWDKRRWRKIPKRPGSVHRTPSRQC
M1 ag parental: nonselective activator or artifact in parental CHO-K1 cells; Fluo-8 calcium fluorescence; scaled to maximal ATP response, vehicle zero; 0.48% of 360,000 active; activation, % at 3 µM; in the data active = activation above about 15%;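 also: untransfected CHO-K1 host cells lacking M1 receptor as counterscreen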
CHRM1 antagonist: blocks human M1 muscarinic receptor. AID 588852. 1.3% of 360,000 active. inhibition, % at 3 µM. CHO-K1 hM1, Fluo-8 calcium fluorescence, ACh EC80 antagonist;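 active = percent inhibition above its own plate's cutoff, namely the mean of that plate's compound wells plus 3 SD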;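 also: peak over basal fluorescence ratio during 140 s after agonist addition; 0% = ACh EC80 plus DMSO and 100% = DMSO alone without agonist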
CHO-K1 Ca PAM: counter-screen for M1 PAMs: effect in parental CHO-K1 cells; ATP EC20, Fluo-8 calcium fluorescence; 0% at ATP EC20, 100% at ATP max; activation, % at 3 µM; 0.02% of 360,000 active; AID 602247;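 active = activation above the run cutoff, the mean activation of all test compounds plus 3 SD, cut at about 40% in these data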;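 also: peak over basal fluorescence ratio in a 140 s read after ATP addition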
CHRM1 agonist: human M1 muscarinic receptor agonism; CHO-K1 hM1, Fluo-8 calcium fluorescence, agonist mode; 0% DMSO, 100% acetylcholine EC100; activation, % at 3 µM; 0.33% of 360,000 active; AID 588814;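 active = activation above the run's mean compound activation plus 3 SD, cut at about 16% in these data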;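 also: peak over basal fluorescence ratio within a 140 s kinetic read after compound addition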
Numbers without * were called inactive.

What do the screens show for `O=C(Nc1ccccc1F)c1ccc(OCc2ccccc2)cc1`?
M1 PAM: -2.1; M1 ag parental: 0.7; CHRM1 antagonist: -2.7; CHO-K1 Ca PAM: 5.6; CHRM1 agonist: -7.5

What do the screens show for `CNC(=O)N(O)C1N(C)C(=O)N(CC(=O)OC)C1(C)C` (stereo not given)?
M1 PAM: 9.4; M1 ag parental: -0.4; CHRM1 antagonist: -7.5; CHO-K1 Ca PAM: -0.8; CHRM1 agonist: 1.0

Results for O=C(COc1ccc(F)cc1Cl)Nc1cccc(S(=O)(=O)N2CCCCCC2)c1 ?
M1 PAM: -4.3; M1 ag parental: 1.3; CHRM1 antagonist: 9.8; CHO-K1 Ca PAM: 13.5; CHRM1 agonist: 0.6

What do the screens show for `c1ccc(CCN2CN=C(Nc3nc4ccccc4o3)NC2)cc1`?
M1 PAM: -16.6; M1 ag parental: 1.5; CHRM1 antagonist: 4.8; CHO-K1 Ca PAM: 25.1; CHRM1 agonist: -8.1

What do the screens show for `N#Cc1c(-c2cccs2)cc(-c2ccccn2)nc1N`?
M1 PAM: 3.9; M1 ag parental: 1.6; CHRM1 antagonist: -31.7; CHO-K1 Ca PAM: 2.4; CHRM1 agonist: 1.0

Results for CSc1ccc(CN(C)C(=O)c2cc(S(=O)(=O)NCc3ccccc3)ccc2C)cc1 ?
M1 PAM: -8.6; M1 ag parental: 7.6; CHRM1 antagonist: 7.1; CHO-K1 Ca PAM: -6.7; CHRM1 agonist: -0.5

What do the screens show for `Cc1ccc(S(=O)(=O)n2c(C)nc3ccccc32)cc1`?
M1 PAM: -15.8; M1 ag parental: -0.2; CHRM1 antagonist: 11.8; CHO-K1 Ca PAM: -14.6; CHRM1 agonist: -9.0

What do the screens show for `COc1cccc(C(=O)Nc2cc3c(cc2N2CCOCC2)n(C)c(=O)n3C)c1`?
M1 PAM: 7.7; M1 ag parental: 0.4; CHRM1 antagonist: -7.8; CHO-K1 Ca PAM: 6.7; CHRM1 agonist: -1.9

How did CN1CCN(C(=O)c2ccc(NS(=O)(=O)c3ccccc3)cc2)CC1 do in these assays?
M1 PAM: 10.8; M1 ag parental: 0.6; CHRM1 antagonist: -21.8; CHO-K1 Ca PAM: 14.4; CHRM1 agonist: -6.1

How did O=C(CNC(=O)c1ccccc1F)OCC(=O)c1c[nH]c2ccccc12 do in these assays?
M1 PAM: 10.2; M1 ag parental: 0.9; CHRM1 antagonist: -5.7; CHO-K1 Ca PAM: 12.4; CHRM1 agonist: -1.6

What do the screens show for `CC(=O)Nc1ccc(NC(=O)Nc2ccccc2)cc1`?
M1 PAM: 2.8; M1 ag parental: 1.3; CHRM1 antagonist: -4.8; CHO-K1 Ca PAM: 1.6; CHRM1 agonist: -2.5

What do the screens show for `O=C(N/N=C/c1ccc(Sc2ccccn2)o1)c1cccc([N+](=O)[O-])c1`?
M1 PAM: -6.6; M1 ag parental: 0.2; CHRM1 antagonist: 11.3; CHO-K1 Ca PAM: -2.5; CHRM1 agonist: -5.7

What do the screens show for `O=C(Oc1ccc(C(=S)N2CCCCC2)cc1)c1ccccc1`?
M1 PAM: 0.2; M1 ag parental: -0.2; CHRM1 antagonist: 3.2; CHO-K1 Ca PAM: 4.0; CHRM1 agonist: -12.8

How did CCCc1cc(C(=O)Cc2ccc(F)cc2)c(O)cc1O do in these assays?
M1 PAM: 1.8; M1 ag parental: 3.1; CHRM1 antagonist: -16.9; CHO-K1 Ca PAM: 17.7; CHRM1 agonist: -2.9

What do the screens show for `Cc1ccc(NC(=O)c2sccc2SCc2cccc(C(F)(F)F)c2)cc1`?
M1 PAM: -8.8; M1 ag parental: 1.3; CHRM1 antagonist: 7.8; CHO-K1 Ca PAM: 15.6; CHRM1 agonist: -6.0

Random excerpt: 2 compounds from above.
What do the screens show for `COc1cccc(C(=O)Nc2cc3c(cc2N2CCOCC2)n(C)c(=O)n3C)c1`?
M1 PAM: 7.7; M1 ag parental: 0.4; CHRM1 antagonist: -7.8; CHO-K1 Ca PAM: 6.7; CHRM1 agonist: -1.9

What do the screens show for `O=C(N/N=C/c1ccc(Sc2ccccn2)o1)c1cccc([N+](=O)[O-])c1`?
M1 PAM: -6.6; M1 ag parental: 0.2; CHRM1 antagonist: 11.3; CHO-K1 Ca PAM: -2.5; CHRM1 agonist: -5.7

New compounds follow:
How did CC(C)=N/N=C(\N)SCc1ccccc1 do in these assays?
M1 PAM: 5.9; M1 ag parental: 0.9; CHRM1 antagonist: -6.7; CHO-K1 Ca PAM: 14.3; CHRM1 agonist: -2.6

How did Nc1nc(Cl)c(N)c(NCC2(CO)CC(CCc3ccccc3)C2)n1 (stereo not given) do in these assays?
M1 PAM: -12.8; M1 ag parental: 8.9; CHRM1 antagonist: 23.2; CHO-K1 Ca PAM: 0.2; CHRM1 agonist: 0.8

Results for N#Cc1ccc(-c2ccc(OCC(O)Cn3nnc4ccccc43)cc2)cc1 (stereo not given) ?
M1 PAM: -14.3; M1 ag parental: 7.9; CHRM1 antagonist: 11.4; CHO-K1 Ca PAM: 4.1; CHRM1 agonist: 4.1

How did Cc1cc(C)c(/C=C2\C(=O)Nc3ccccc32)[nH]1 do in these assays?
M1 PAM: -12.4; M1 ag parental: 24.4*; CHRM1 antagonist: -7.7; CHO-K1 Ca PAM: 1.9; CHRM1 agonist: 26.4*

Results for O=C(Cc1n[nH]c(=O)[nH]c1=O)N/N=C/c1ccccc1O ?
M1 PAM: 14.2; M1 ag parental: 1.1; CHRM1 antagonist: -10.8; CHO-K1 Ca PAM: 33.5; CHRM1 agonist: -4.8

Results for CN(C)S(=O)(=O)c1cccc(NC(=O)COc2ccc(C(=O)c3ccccc3)cc2)c1 ?
M1 PAM: -14.8; M1 ag parental: 13.4; CHRM1 antagonist: 21.5; CHO-K1 Ca PAM: -17.2; CHRM1 agonist: -4.3

What do the screens show for `Cc1cc(N/N=C/c2ccc(O)cc2O)nc(N2CCOCC2)n1`?
M1 PAM: 2.6; M1 ag parental: 0.8; CHRM1 antagonist: 1.7; CHO-K1 Ca PAM: -14.3; CHRM1 agonist: -3.3

How did O=C(CNC(=O)c1cccc(F)c1)N/N=C/C=C/c1ccccc1 do in these assays?
M1 PAM: 7.1; M1 ag parental: -0.4; CHRM1 antagonist: -9.9; CHO-K1 Ca PAM: 9.4; CHRM1 agonist: -10.9

How did C=CCn1c2ccccc2c(=O)c2cc(C#Cc3ccccn3)ccc21 do in these assays?
M1 PAM: -2.7; M1 ag parental: 1.0; CHRM1 antagonist: -4.1; CHO-K1 Ca PAM: 14.3; CHRM1 agonist: -5.5

Results for COCc1cc(C)nc(SCC(=O)c2ccc(O)c(O)c2)c1C#N ?
M1 PAM: 2.3; M1 ag parental: 6.2; CHRM1 antagonist: -4.4; CHO-K1 Ca PAM: 18.0; CHRM1 agonist: 1.2

Results for O=C(Cn1cnc([N+](=O)[O-])c1)NCCc1ccccc1 ?
M1 PAM: 15.0; M1 ag parental: 0.0; CHRM1 antagonist: -9.8; CHO-K1 Ca PAM: -0.8; CHRM1 agonist: 5.1

What do the screens show for `COc1ccccc1NS(=O)(=O)c1cccc(NC(=O)c2ccc3ccccc3n2)c1`?
M1 PAM: -7.2; M1 ag parental: 7.3; CHRM1 antagonist: 13.5; CHO-K1 Ca PAM: 8.0; CHRM1 agonist: -5.9

What do the screens show for `Cn1nc(CC(=O)Nc2ccc(N3CCN(C(=O)OC(C)(C)C)CC3)cc2)c2ccccc2c1=O`?
M1 PAM: -6.0; M1 ag parental: 6.9; CHRM1 antagonist: 15.7; CHO-K1 Ca PAM: -2.5; CHRM1 agonist: 4.4

What do the screens show for `c1ccc(N/N=C(\Cc2ncc[nH]2)c2ccccc2)cc1`?
M1 PAM: 1.2; M1 ag parental: 0.5; CHRM1 antagonist: 0.9; CHO-K1 Ca PAM: 2.4; CHRM1 agonist: -3.5

Entries above containing a cyano group:
What do the screens show for `N#Cc1c(-c2cccs2)cc(-c2ccccn2)nc1N`?
M1 PAM: 3.9; M1 ag parental: 1.6; CHRM1 antagonist: -31.7; CHO-K1 Ca PAM: 2.4; CHRM1 agonist: 1.0

Results for N#Cc1ccc(-c2ccc(OCC(O)Cn3nnc4ccccc43)cc2)cc1 (stereo not given) ?
M1 PAM: -14.3; M1 ag parental: 7.9; CHRM1 antagonist: 11.4; CHO-K1 Ca PAM: 4.1; CHRM1 agonist: 4.1

Results for COCc1cc(C)nc(SCC(=O)c2ccc(O)c(O)c2)c1C#N ?
M1 PAM: 2.3; M1 ag parental: 6.2; CHRM1 antagonist: -4.4; CHO-K1 Ca PAM: 18.0; CHRM1 agonist: 1.2

This is a subset. The share of hits here may be higher or lower than overall.
